CtBP-E1A inh – CtBP/E1A binding inhibition; AlphaScreen GST-E1A/His-CtBP binding, 1536-well; active compounds read low; control for the full effect not named in the record; activity change, % (no concentration beside the values); actives 0.49% (n = 340,000); in the data active means activity change below about -65%; inconclusive means about -30% to -65%; inactive means above about -30%; note: % is set by controls: 0 for no effect and ±100 for the full control effect
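Steps: dispense buffer (Tris pH 8.0, NaCl 300 mM, TCEP 1 mM, BSA, Tween 20); add 5X protein mix (GST-E1A, His-CtBP, 125 nM each); pin 23 nL compound; 2 h at 37 °C, dark; add 5X beads (50 ug/mL); 1 h; read.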
TRPV1 PAM – enhances activation of the human vanilloid receptor TRPV1 | potentiation, % at 8.33 µM | TRPV1-expressing cells, Fluo-8 calcium influx, capsaicin EC20 potentiation; host cell line not named in the record; control for the full effect not named in the record | actives 0.02% (n = 320,000) | Q8NER1; active means potentiation above 80%; inconclusive means 30% to 80%; inactive means below 30%; note: 0% is about no effect
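Fluo-8 calcium influx in TRPV1-expressing cells, kinetic read (ex 480/em 520 nm). Compound added and read 3 min for agonist activity, followed by capsaicin at EC20 final and 2 min further read for enhancement.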
D2 potentiator – positive allosteric modulators of human D2 dopamine receptor. P14416. DiscoveRx D2 beta-arrestin cells, luminescence, 90 min; 100% = 57 uM dopamine signal. potentiation, % (test concentration not listed). actives 0.23% (n = 360,000). AID 624464; active = potentiation of 50% or more; inconclusive = 30% to 50%; inactive = 30% or less;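 note: compound concentration not given in the record; tested on top of an EC20 dose of dopamine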
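PathHunter beta-arrestin assay in DiscoveRx D2 cells. Compounds were added with an EC20 of dopamine (50 nM final) for 90 min at 37 deg C. Luminescence was read 1 h after detection reagent, with 57 uM dopamine as the EC100 control.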
Sfp PPTase inh – Sfp phosphopantetheinyl transferase inhibition | Biochemical Sfp PPTase activity, qHTS | actives 3.5% (n = 310,000) | Potency, µM, for the others: max response, negative = inhibition, hits mostly inhibitors; active = well fitted inhibition curve with a large enough effect; inconclusive = small, poorly fitted or top-dose-only effect, or another doubt; inactive = no such curve, though single readings can be large or run the other way;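 note: the enzyme is Sfp with the accession as filed and its product quenches rhodamine fluorescence; potency is the fitted concentration of half-maximal effect; 0% = enzyme reaction without inhibitor and -100% = no enzyme wells; top concentration of the series not given in the record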
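Reaction rates are the 30-min fluorescence difference (ex 525, em 598 nm) in wells containing 15 nM Sfp, 5 uM rhodamine-CoA and 12.5 uM BHQ-2-YbbR at pH 7.6 with 10 mM MgCl2.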
D2 ag – activates the human D2 dopamine receptor; P14416; DiscoveRx PathHunter D2 beta-arrestin, luminescence, 90 min; 100% = 57 uM dopamine signal; activation, % (concentration not given with the values); actives 0.084% (n = 360,000); in the data active = activation above about 40%; inconclusive = about 15% to 40%; inactive = below about 15%; note: compound concentration not given in the record; the text of the record calls up to 30% inactive
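DiscoveRx PathHunter D2 beta-arrestin cells (2,100/well) attached overnight, then compound-stimulated 90 min at 37 C in HBSS/10 mM HEPES/0.1% Tween-20 buffer; beta-galactosidase complementation read by luminescence after 1 h at ambient temperature. Dopamine 57 uM final (EC100) as control.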
Six1-Eya2 blk – Six1/Eya2 interaction inhibition; Q15475+O00167; AlphaScreen GST-Six1/His-Eya2 binding, biochemical; active compounds read low; control for the full effect not named in the record; activity change, % (test concentration not listed); actives 0.56% (n = 360,000); AID 651725; in the data active = activity change below about -65%; inconclusive = about -30% to -65%; inactive = above about -30%; note: % is set by controls: 0 for no effect and ±100 for the full control effect
Target sequence (O00167 whole entry, looked up): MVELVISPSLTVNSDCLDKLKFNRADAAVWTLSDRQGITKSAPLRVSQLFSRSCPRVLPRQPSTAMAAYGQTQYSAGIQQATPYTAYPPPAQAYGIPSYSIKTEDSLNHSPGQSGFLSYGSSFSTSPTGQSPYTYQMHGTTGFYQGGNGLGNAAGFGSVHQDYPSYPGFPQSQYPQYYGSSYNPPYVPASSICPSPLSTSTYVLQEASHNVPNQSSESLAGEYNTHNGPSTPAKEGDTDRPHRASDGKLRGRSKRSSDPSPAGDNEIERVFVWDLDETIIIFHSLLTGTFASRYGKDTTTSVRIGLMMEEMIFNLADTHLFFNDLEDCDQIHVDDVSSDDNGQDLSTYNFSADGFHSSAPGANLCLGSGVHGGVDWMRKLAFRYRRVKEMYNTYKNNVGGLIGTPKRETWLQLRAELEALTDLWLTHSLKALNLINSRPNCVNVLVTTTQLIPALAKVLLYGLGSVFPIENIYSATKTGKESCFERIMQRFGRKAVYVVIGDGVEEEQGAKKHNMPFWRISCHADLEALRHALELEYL
Target sequence (Q15475 whole entry, looked up): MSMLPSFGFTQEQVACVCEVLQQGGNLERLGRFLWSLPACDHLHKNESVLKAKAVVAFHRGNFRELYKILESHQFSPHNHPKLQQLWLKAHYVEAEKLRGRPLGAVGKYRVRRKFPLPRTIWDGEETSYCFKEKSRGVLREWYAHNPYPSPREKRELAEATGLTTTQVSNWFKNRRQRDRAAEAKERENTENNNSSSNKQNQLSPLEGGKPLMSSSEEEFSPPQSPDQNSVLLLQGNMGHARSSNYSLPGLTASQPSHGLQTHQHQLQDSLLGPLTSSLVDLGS
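AlphaScreen with GST-Six1 and His-Eya2 (5X mix: 250 nM and 500 nM), glutathione donor and nickel acceptor beads; buffer 50 mM Tris pH 8.0, 300 mM NaCl, 1 mM TCEP; 1 h at 37 C in the dark.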
PINK1 modulator – changes PINK1 expression. PINK1 immunofluorescence, high-content cytometry, 24 h. Potency, µM (series often up to 76.6 µM), for the others: top-dose activation (PINK1 increase), hits mostly activators. actives 0.2% (n = 410,000). AID 624263; active = well fitted activation curve with a large enough effect; inconclusive = small, poorly fitted or top-dose-only effect; inactive = flat fitted curve, though single readings scatter; cell line not stated here;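 note: potency is the fitted concentration of half-maximal effect; % of control where 0% means no effect; nearly all actives have a fitted effect of over 65% in size; a mitochondrial uncoupler was the plate control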
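Stable cell line treated 24 h with compounds at 5 concentrations (CCCP controls), then fixed and immunostained for PINK1 plus nuclear and cell stains; PINK1 immunofluorescence quantified by laser-scanning microplate cytometry.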
* marks the source's active call; other numbers are inactive results; ? = inconclusive; nt = no result given; & = joins results of further samples; [ ] = dose if it differs, or a comment.

Value order – CtBP-E1A inh, TRPV1 PAM, D2 potentiator, Sfp PPTase inh, D2 ag, Six1-Eya2 blk, PINK1 modulator
1) CC1(C)CC(=O)C2=C(C1)N(c1ccccc1)C(=O)CC2c1ccsc1 (stereo not given)
  -0.5, 16.7, -8.8, 17.1%, -2.4, -5.9, 1.0%
2) CCOc1ccc(C(=O)C2CCN(CC(=O)Nc3ccccc3N3CCOCC3)CC2)cc1
  -5.0, 4.0, 5.2, -6.9%, 3.6, -12.6, 10.8%[38.3 µM]
3) O=C1c2ccccc2C(c2nnnn2-c2ccc3c(c2)OCCO3)N1Cc1cccc(F)c1 (stereo not given)
  1.3&1.1, nt, nt, nt, nt, -5.3&0.2, 3.4%&0.5%
4) N#C/C(=C(/O)COC(=O)c1ccc(Cl)c(S(=O)(=O)N2CCOCC2)c1)c1nc2ccccc2[nH]1
  0.2, -6.3, -2.8, -21.0%, -4.5, 3.8, 1.2%
5) O=C(Nc1cccc(-c2nnc(-c3ccccc3)o2)c1)c1ccc(Br)o1
  8.6, 1.8, -2.8, 3.7%, 1.8, -23.1, nt
6) CCOc1cc(CNCc2cccs2)cc(Br)c1OCC
  10.9, -6.1, -19.7, 3.1%, -4.4, 34.5, -0.3%
7) CCOC(=O)Nc1ccc(S(=O)(=O)N2CCC(c3nc4ccccc4[nH]3)CC2)cc1
  -2.4, nt, -9.8, nt, 0.7, -5.7, 1.0%
8) CCCCC1CCC(C(=O)N(CC(C)C)c2c(N)n(CCCC)c(=O)[nH]c2=O)CC1 (stereo not given)
  -18.5, 3.8, -28.3, nt, -2.6, 2.4, 0.3%
9) O=C(NCCCN1CCCC1=O)C1CCN(S(=O)(=O)c2c(Cl)cccc2Cl)CC1
  0.0, 22.3, -15.2, nt, -2.8, 38.1, 1.3%
10) Cc1ccc(CCN2CC(C(=O)NCCC(C)C)CC2=O)cc1 (stereo not given)
  0.0, 9.6, -2.6, 8.7%, -6.0, 12.6, 1.2%
11) CCN(CC)CC(C)OC(=O)c1cc(OC)c(OC)c(OC)c1 (stereo not given)
  11.7, ?, -6.4, 11.3%, -1.0, 0.1, -0.5%
12) COc1ccccc1-c1cc(NC=O)c2ncc(-c3cccc(C(C)=O)c3)n2c1
  -1.7, nt, 5.5, nt, -1.2, -12.9, 7.0%
13) Cc1ccccc1S(=O)(=O)Cc1ccc(C(=O)NCCN(C)Cc2ccccc2)o1
  -13.9, -8.9, -35.6, 15.6%, -1.9, -0.6, -1.2%
14) N/C(=N\c1nc2ccccc2o1)NC(=O)/C=C/c1ccccc1
  -0.6, 0.7, -1.2, 2.3%, 4.2, 11.8, 14.0%
15) O=C(COC(=O)c1ccccc1O)Nc1cccnc1Cl
  13.1, 5.2, -8.7, 4.0%, -0.3, 1.0, 1.3%
16) Cc1cccc(N2Cc3ccccc3C2=NC(=O)c2ccc(Cl)nc2)c1
  4.0, -7.0, -4.6, -10.9%, 0.7, -1.9, -1.4%
17) CCCCOc1ccc(C(=O)Nc2ccc(CN3CCOCC3)cc2)cc1
  12.1, -12.3, -2.2, 7.7%, -5.3, -0.9, 2.1%
18) CCC(C)(C)n1nnnc1C(c1ccncc1)N1CCC(C)CC1 (stereo not given)
  0.0, -43.8, -11.3, 5.7%, -4.1, 21.2, -2.2%
19) COc1cc(OC)cc(C(=O)N2CCN=C2SCc2cccnc2)c1
  1.2, 0.1, -9.2, 16.4%, -7.8, -3.7, 5.5%
20) C/C(=C\C(=O)c1ccccc1)NNC(=O)c1ccc(Cl)cc1
  -6.8, -0.7, -10.9, -5.7%, 0.3, -0.7, 0.2%
21) CN(C)CCNC(=O)C(=O)NCC1OCCN1S(=O)(=O)c1ccc([N+](=O)[O-])cc1 (stereo not given)
  4.1, -0.4, ?, -5.5%, 4.5, 0.0, -1.8%
22) CN(CC(=O)Nc1cccc(S(=O)(=O)NC2=NCCCCC2)c1)Cc1ccc(C(C)(C)C)cc1
  -10.5, -16.2, -7.2, 9.2%, -4.2, -0.9, 9.9%
23) CCC(C)NC(=O)CN(c1ccc(Cl)c(Cl)c1)S(C)(=O)=O (stereo not given)
  1.9, -0.9, -7.1, 21.5%, 4.5, 8.6, -2.6%
24) O=C(Nc1nc(-c2ccccc2)cs1)c1cccs1
  -3.9, 6.4, -4.8, -2.0%, -1.2, -1.7, 2.6%
25) CCn1cc(CCC(=O)NC2CCCC2)c2ccccc21
  2.0, -15.6, -6.4, 9.7%, -3.5, -8.7, 2.4%
26) Cc1ccc(CNC(=O)C2CCN(S(=O)(=O)N3CCCC3)CC2)cc1
  1.6, -1.1, -3.9, 15.2%, -0.8, 3.9, -1.1%
27) CCOC(=O)c1c(NC(=O)c2ccn(CC)n2)sc2c1CCCC2
  16.4, 7.4, -13.3, -10.3%, 0.6, 13.9, 10µM*
28) CN1CCC/C1=C/C=C1\SC(=S)NC1=O
  10.0, -2.8, -31.3, 28.2µM*, -5.9, -17.3, 2.7%
29) O=C(NCCN1CCC(n2c(=O)[nH]c3ccccc32)CC1)c1ccc(F)c(F)c1
  0.1, nt, nt, nt, nt, -0.5, 0.9%
30) COc1ccc(S(=O)(=O)n2nc(OC(=O)c3ccccc3)cc2N)cc1
  1.0, 8.0, 3.5, -22.4%, -1.1, -3.9, 1.9%
31) CC(C)Oc1ccc2c(c1)OC(c1ccccc1)(C(F)(F)F)NC2=O (stereo not given)
  0.9, 1.2, -8.9, 12.1%, -6.0, 1.2, 7.2%
32) O=C(NCc1cc(C(F)(F)F)ccc1Cl)c1cccc2c1C(=O)c1ccc(N3CCCCC3)cc1S2(=O)=O
  0.2, nt, -8.9, nt, -4.7, 3.5, 6.4%
33) COc1cc(C(=O)NC(=S)N2CCN(C)CC2)cc(OC)c1OC
  5.0, nt, -3.1, nt, 2.0, -2.5, -1.7%
34) O=C(COC(=O)c1ccc(F)cc1Cl)NCc1ccco1
  3.5, -7.3, -11.6, nt, -2.9, -3.9, -3.7%
35) NS(=O)(=O)c1ccc(NC(=S)NNC(=O)CCC(=O)Nc2ccccc2Cl)cc1
  3.7, 13.5, -4.4, -4.1%, 5.9, 4.9, 1.3%
36) CSc1nc(-c2ccccc2)cc(C(F)(F)F)c1C#N
  16.7, 3.1, 12.3, -20.8%, 0.2, 16.6, 6.4%
37) CCC1Oc2ccccc2N(CC(=O)N2CCCC2)C1=O (stereo not given)
  1.8, nt, -6.0, nt, 0.0, -1.1, 1.0%
38) CC(=O)Nc1ccc(NC(=O)c2cccc(C(=O)OC(C)C)n2)cc1
  3.1, 7.7, 2.6, 10.0%, -2.6, 5.3, 0.5%
39) CN(Cc1ccc(O)cc1)C1CCCCC1
  6.4, 4.2, -9.6, 6.2%, -2.0, 1.0, 1.7%[38.3 µM]
40) Cc1ccc(OCc2nnc(SCC(=O)NCc3ccccc3)n2C)cc1
  -1.8, 1.6, -5.6, 13.0%, -3.3, 3.4, 3.6%

Shown tab-delimited: entries from further up
item	compound	CtBP-E1A inh	TRPV1 PAM	D2 potentiator	Sfp PPTase inh	D2 ag	Six1-Eya2 blk	PINK1 modulator
28	CN1CCC/C1=C/C=C1\SC(=S)NC1=O	10.0	-2.8	-31.3	28.2µM*	-5.9	-17.3	2.7%
36	CSc1nc(-c2ccccc2)cc(C(F)(F)F)c1C#N	16.7	3.1	12.3	-20.8%	0.2	16.6	6.4%

Further structures.
Value order – CtBP-E1A inh, TRPV1 PAM, D2 potentiator, Sfp PPTase inh, D2 ag, Six1-Eya2 blk, PINK1 modulator
41) CCOC(=O)C1=C(C)N(C)C(=O)NC1c1c(C)nn(-c2ccccc2)c1C (stereo not given)
  3.8, 14.0, -22.9, 2.6%, -3.5, 6.7, -1.1%
42) COc1cc(/C=C2\C(=N)N3N=C(C)SC3=NC2=O)cc(OC)c1OCCOc1ccccc1C
  nt, -21.6, 0.9, 2.3%, -3.6, 3.5, 5.9%
43) COc1cccc(C(NC(C)=O)c2ccc3cccnc3c2O)c1 (stereo not given)
  -91.3*, 4.5, -7.8, 12.1%, 1.2, -66.8*, -0.4%
44) Cc1ccc(S(=O)(=O)N2c3cc(C)ccc3OCC2C(C)(C)C)cc1 (stereo not given)
  17.2, 9.0, -8.3, 6.1%, -6.2, 4.7, 15.8%
45) Cc1cc2nccc(-c3ccncc3)n2n1
  6.7, 1.5, -3.2, 13.1%, -1.4, 4.3, 0.4%
46) Cn1c(C(=O)c2ccccc2[N+](=O)[O-])nc2ccccc21
  nt, 6.4, -10.0, 1.9%, 4.7, 5.9, 1.1%
47) CCCCN(C)C(=S)Nc1ccsc1C(=O)OC
  nt, 4.2, -7.2, -23.8%, -2.1, 3.3, 1.4%
48) O=c1oc2cc(O)ccc2cc1-c1nc2ccccc2o1
  4.9, nt, 21.7, nt, ?, 0.3, 0.4%
49) CCc1ccccc1NC(=O)NC1CC2CCC(C1)N2Cc1ccco1 (stereo not given)
  3.9, 5.5, -32.7, 22.3%, -3.8, -0.3, 0.8%
50) COc1cc(OC)c(OC)cc1CNCCNC(=O)c1ccco1
  -1.3, 2.5, -10.5, -0.8%, 0.5, 5.5, 2.2%
51) COc1ccc(C(=O)Oc2c(OC)cc(C(=S)N3CCOCC3)cc2OC)cc1
  1.1, 10.4, -1.6, -4.4%, 2.0, -7.4, 0.7%
52) CCOc1ccccc1OCCC(=O)OCC(=O)Nc1c(C)cc(C)cc1C
  -1.8, 4.8, -12.9, nt, -1.6, 5.9, 3.7%
53) COc1ccc(C(=O)NC2CC2)cc1OC1CCN(Cc2ccccc2O)CC1
  9.9, 1.1, -27.7, 8.6%, -7.2, -4.6, -1.8%
54) Cc1oc(CSCC2CCCO2)cc1C(=O)O (stereo not given)
  -3.7, 7.4, -9.1, -4.6%, -1.7, -4.9, -3.3%
55) CCn1c(SCC(=O)Nc2cc(C)on2)nnc1-c1ccc(C)cc1
  2.7, 6.8, -8.0, 11.9%, -1.5, 4.2, 0.1%

Bioassay records (PubChem)
